miR-21 reporter – miR-21 reporter, rising signal; HeLa miR-21 FLuc reporter, luciferase, 48 h; Potency, µM (highest dose often 38.3 µM), for inactives: at the top dose reporter change, positive = more light; 340,000 tested, under 10 active; AID 2288; active = well fitted rising curve with a large enough effect; inconclusive = small, poorly fitted or top-dose-only effect; inactive = no such curve, though single readings can be large or run the other way;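 note: % of control where 0% means no effect; miR-21 action dims this reporter so a rising signal means less miR-21 action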
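HeLa cells endogenously expressing miR-21, stably carrying CMV-driven firefly luciferase with a downstream miR-21 binding site, 2000 cells/well. Titrations up to approximately 40 uM, 48 hours; luciferase luminescence read.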
Rango-impB inh – Rango-importin beta binding inhibition. Rango CFP/YFP FRET sensor + importin beta, 45 min. Potency, µM (series often up to 92.2 µM), without a hit: at the highest dose inhibition of complex formation. 340,000 tested, 0.031% active. AID 540263; active = rising FRET ratio curve, often small or poorly fitted; inconclusive = mostly compound fluorescence or quenching in the first reads; inactive = flat curves in all reads;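 note: potency is the fitted concentration of half-maximal effect; 0% = DMSO wells and 100% = buffer wells lacking importin beta; nearly all actives have a fitted effect of over 15% in size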
Target sequence (Q14974 whole entry, looked up): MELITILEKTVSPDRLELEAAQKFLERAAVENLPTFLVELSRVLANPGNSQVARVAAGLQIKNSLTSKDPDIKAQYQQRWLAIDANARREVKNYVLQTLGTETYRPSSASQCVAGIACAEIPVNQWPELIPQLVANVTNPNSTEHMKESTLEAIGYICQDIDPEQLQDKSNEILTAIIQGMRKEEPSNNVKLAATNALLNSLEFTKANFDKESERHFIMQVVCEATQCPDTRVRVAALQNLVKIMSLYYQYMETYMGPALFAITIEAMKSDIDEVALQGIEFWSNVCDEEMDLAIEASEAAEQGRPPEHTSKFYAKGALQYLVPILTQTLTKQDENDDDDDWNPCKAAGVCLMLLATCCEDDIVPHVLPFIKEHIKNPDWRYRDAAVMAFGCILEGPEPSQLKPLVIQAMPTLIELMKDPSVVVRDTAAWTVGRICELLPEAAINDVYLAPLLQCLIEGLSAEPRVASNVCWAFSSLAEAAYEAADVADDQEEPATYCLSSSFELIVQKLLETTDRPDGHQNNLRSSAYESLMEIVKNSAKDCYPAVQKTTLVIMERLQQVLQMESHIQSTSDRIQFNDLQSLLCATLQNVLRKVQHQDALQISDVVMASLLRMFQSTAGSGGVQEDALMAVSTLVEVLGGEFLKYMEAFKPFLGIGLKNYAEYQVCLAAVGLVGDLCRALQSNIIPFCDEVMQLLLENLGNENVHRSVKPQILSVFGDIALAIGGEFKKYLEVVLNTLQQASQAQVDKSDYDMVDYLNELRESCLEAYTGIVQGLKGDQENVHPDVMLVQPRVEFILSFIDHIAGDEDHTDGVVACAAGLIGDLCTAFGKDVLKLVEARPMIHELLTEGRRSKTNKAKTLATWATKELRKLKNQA
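FRET biosensor (snurportin 1 IBB flanked by EYFP and cerulean), 50 nM, with compound 5 min, then 0.125 microM importin beta in PBS, 1 mM DTT, 0.02% Tween-20, 0.1% BSA. CFP/YFP ratio read after 45 min at room temperature; pre-read flags interference.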
GLA inh pH 4.5 – inhibitors of human alpha-galactosidase A at pH 4.5 | P06280 | purified enzyme, 4-MU-alpha-Gal fluorescence, pH 4.5 | activity change, negative = inhibition, % at 105 µM | 230,000 tested, under 10 active | AID 1467; inconclusive = small, poorly fitted or top-dose-only inhibition, or a rising curve; inactive = flat fitted curve, though single readings scatter; no compound was filed as active;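 note: 0% = full activity with enzyme and -100% = basal without enzyme; dose as in the result columns while the protocol names 77 µM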
Rango dissoc inh – prevents RanGTP from dissociating the Rango-importin beta complex; 340,000 tested, 0.071% active; Potency, µM (titrated, usually from 46.1 µM), inactives show top-dose activity change, negative = inhibition; Biochemical FRET Rango-importin beta, RanGTP-induced dissociation; O95149+P62826; active means falling FRET ratio curve, often poorly fitted, with flat reads before Ran was added; inconclusive means other falling curves, or compound fluorescence or quenching; inactive means flat or rising ratio curve;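 note: potency is the fitted concentration of half-maximal effect; % of control where 0% means no effect; nearly all actives have a fitted effect of over 45% in size; -100% = wells without RanGTP and RCC1; the record marks most hits as doubtful in a second field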
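Compounds sat 5 min at room temperature with 0.1 uM Rango biosensor plus 0.25 uM importin beta, then FRET pre-read. RanGTP-RCC1 (0.6 uM Ran, 2mM GTP, 0.2 uM RCC1) added for 45 min, and the CFP/YFP post-read measured blocked complex dissociation.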
* = called active by the depositor; u = inconclusive; x = not tested or not shown; & = joins results of further samples.

SMILES	miR-21 reporter	Rango-impB inh	GLA inh pH 4.5	Rango dissoc inh
CC(C(=O)N1CCc2ccccc21)N1CCN(c2cccc(C(F)(F)F)c2)CC1 (stereo not given)	10%	1.5%	x	7%
O=C1[C@H]2CCC=C[C@H]2[C@H](c2ccccc2Br)N1Cc1ccccc1	x	4.0%	-21	12%
CCOC(=O)CSc1nc(C)c2ccc(C)cc2n1	-7%	u	-1	-6%
CC(=O)c1cccc(NC(=O)/C(=C/c2ccco2)NC(=O)c2ccco2)c1	-1%	-3.2%	x	-13%
COc1ccc(NC(=O)Nc2ccc(Br)cn2)cc1OC	-25%	-1.3%	1	-3%
CCn1cc(C(=O)N[C@H](C(=O)NCCO)C(C)C)c(=O)c2cc3c(cc21)OCO3	-1%	2.1%	x	4%
COc1ccc(C2C(C(=O)c3ccc(C)o3)=C(O)C(=O)N2Cc2ccco2)cc1OC (stereo not given)	-4%	-2.0%	x	-8%
c1ccc(Oc2nc3ccccc3n3cccc23)cc1	-3%	3.9%	1	3%
O=C(/C=C/c1ccc(N2CCOCC2)cc1)c1ccccc1	-37%	u	-17	u
NS(=O)(=O)c1ccc(NC(=O)c2ccc(CNS(=O)(=O)c3cc(C(F)(F)F)ccc3Cl)cc2)cc1	2%	0.9%	10	-13%
Cc1ccc(-n2c(=O)cc(N3CCC(C)CC3)[nH]c2=O)cc1	-5%	1.6%	-1	-14%
O=C(Nc1cccc(F)c1)N1CCCC(CNS(=O)(=O)Cc2ccccc2)C1 (stereo not given)	0%	-2.6%	0	-1%
CCOc1ccc(NC(=O)/C=C/c2ccccc2)c([N+](=O)[O-])c1	-32%	u	8	-22%
CC[N+]1(CC)CC2=Cc3ccccc3CC2C1 (stereo not given)	3%	5.2%	x	-6%
CC(C)(C)CC(=O)Nc1nn[nH]n1	1%	-0.4%	-3	-5%
COC(CNC(=O)c1ccc2c3c(onc13)-c1ccccc1C2=O)OC	-49%	7.5%	-2	-9%
COc1cc(/C=N/NC(=O)c2cccc([N+](=O)[O-])c2)ccc1OCc1ccc(C)cc1	-45%	-1.6%	3	7%
O=C(OCc1nnc(-c2ccccc2)o1)c1cccc(S(=O)(=O)N2CCOCC2)c1	x	12%	x	6%
COc1ccccc1C(=O)NC(=O)OCCn1c(C)cnc1[N+](=O)[O-]	-4%	-4.1%	0	u
OCC1(CC2CCCCO2)CCN(Cc2nc3ccccc3[nH]2)CC1 (stereo not given)	-2%	u	1	u
CC(C(=O)Nc1ccccc1-c1ccccc1)N1CCN(Cc2ccccc2)CC1 (stereo not given)	8%	3.2%	-12	13%
CCN(CC)S(=O)(=O)c1cccc(-c2nn(-c3ccccc3)cc2/C=C(\C#N)C(=O)NCc2ccco2)c1	-4%	0.7%	0	-3%
COc1ccccc1NC(=O)C1CCN(C(=O)NCc2ccccc2)CC1	10%	-0.6%	x	16%
Cc1ccc(NC2=C(Cl)C(=O)OC2OC(C)C)cc1 (stereo not given)	-1%	0.7%	-20	-8%
O=S(=O)(c1cccc2cccnc12)N1CCCCC1	-8%	0.9%	x	1%
COC(=O)[C@H](Cc1ccccc1)NC(=O)N1CCN(c2ccc(F)cc2)CC1	1%	2.3%	0	0%
CCOC(=O)NC(NS(=O)(=O)c1ccccc1)(C(=O)OCC)C(F)(F)F (stereo not given)	4%	-1.5%	-2	0%
O=C(NC1CCCCCC1)C1c2ccccc2C(=O)N1Cc1cccs1 (stereo not given)	-8%	0.9%	-3	13%
CC1CN(C(=O)CSc2nnc(-c3ccccc3)o2)CC(C)O1 (stereo not given)	0%	-0.8%	x	-7%
Cc1nn(CCS(=O)(=O)c2ccc(Cl)cc2)c(C)c1Br	6%	0.0%	-1	-2%
O=[N+]([O-])c1ccc(-c2nc(C(Cl)Cl)c3ccccc3n2)cc1	-5%	1.2%	4	40%
CCOc1ccc2nc(N3C(=O)CNC3=S)sc2c1	-9%	2.5%	2	-19%
CN(C)CCNc1ncnc2c1sc1nc(-c3ccccc3)c3c(c12)CCCC3	u	-1.9%	-16	1%
COc1cc2[nH]c(C(=O)NCC3CCCO3)cc2c(OC)c1OC (stereo not given)	6%	-0.6%	x	22%
Cc1cccc(N(CC(=O)NCCSc2nc3ccccc3s2)S(=O)(=O)c2ccccc2)c1	-2%	x	-6	x
COc1cccc(CN2CC(C(=O)N(C)CCc3ccccc3)CCC2=O)c1 (stereo not given)	-1%	-0.5%	x	-5%
O=S(=O)(CC(O)CS(=O)(=O)c1ccc(Cl)cc1)c1ccccc1 (stereo not given)	1%	-3.3%	-4	-9%
Cc1c(Cl)cccc1NC(=O)c1nc(C)n(-c2cc(OC(C)C)c(Cl)cc2Cl)n1	0%	5.0%	-1	-2%
CN1CCN(CCC=C2c3ccccc3Sc3ccc(S(=O)(=O)N(C)C)cc32)CC1	x	3.3%	0&1	1%
CCN(CC)CCNC(=O)c1sc2ncn(CC(=O)Nc3ccc(C)c(Cl)c3)c(=O)c2c1C	6%	2.3%	-16	47%

Full records, looked up by structure. Screens in order: miR-21 reporter | Rango-impB inh | GLA inh pH 4.5 | Rango dissoc inh
`COc1cccc(CN2CC(C(=O)N(C)CCc3ccccc3)CCC2=O)c1` (stereo not given) in the list: -1% | -0.5% | x | -5%
`O=[N+]([O-])c1ccc(-c2nc(C(Cl)Cl)c3ccccc3n2)cc1` in the list: -5% | 1.2% | 4 | 40%
`O=S(=O)(CC(O)CS(=O)(=O)c1ccc(Cl)cc1)c1ccccc1` (stereo not given) in the list: 1% | -3.3% | -4 | -9%
`COc1cc2[nH]c(C(=O)NCC3CCCO3)cc2c(OC)c1OC` (stereo not given) in the list: 6% | -0.6% | x | 22%
`CN1CCN(CCC=C2c3ccccc3Sc3ccc(S(=O)(=O)N(C)C)cc32)CC1` in the list: x | 3.3% | 0&1 | 1%

(cont.)
SMILES	miR-21 reporter	Rango-impB inh	GLA inh pH 4.5	Rango dissoc inh
O=S(=O)(c1ccc(Cl)cc1)N1CCCC1c1nc(-c2cccc(Cl)c2)no1 (stereo not given)	-7%	-1.9%	-3	2%
CCCN(CCC)C(=O)CCSCCC(=O)N(CCC)CCC	-6%	-1.2%	4	-6%
Oc1ccc[n+](/C=C\c2ccccc2)c1	x	-1.6%	x	-7%
O=C1CNC(=S)N1CCc1ccc(Cl)cc1	0%	0.6%	-1	-2%
COc1ccccc1NS(=O)(=O)c1cc(NC(=O)COc2ccccc2)ccc1N1CCOCC1	x	6.7%	x	-8%
COC(=O)c1cc(C(=O)OCC(=O)NNC(=O)c2cccs2)cc([N+](=O)[O-])c1	x	0.4%	x	5%
CC(=O)c1cccc(NC(=O)COC(=O)c2ccccn2)c1	0%	-0.6%	x	13%
COc1ccc(OC)c(C(=O)/C=C/c2ccccc2C(F)(F)F)c1	27%	2.8%	-3	8%
COc1ccc(Cn2c(=O)n(Cc3ccco3)c(=N)c3c4c(sc32)COC(C)(C)C4)cc1	-13%	-0.9%	-4	3%
O=C(CCCN1C(=O)/C(=C/c2ccccc2)SC1=S)Nc1ccc(C(=O)O)c(O)c1	-5%	0.3%	x	7%
COc1ccc(Nc2nnc(SCC3CCCO3)s2)cc1 (stereo not given)	-48%	-2.3%	6	-8%
COc1ccc(C2=NN(C(=O)CSc3nnc(-c4ccccc4F)o3)C(c3ccco3)C2)cc1 (stereo not given)	-23%	-3.3%	-7	15%
O=C(COc1ccc(S(=O)(=O)N2CCCC2)cc1Cl)NCc1ccc2c(c1)OCO2	1%	-1.0%	-11	2%
O=C(N/N=C/c1c[nH]c2ccccc12)c1cccc([N+](=O)[O-])c1	-8%	1.4%	-1	-18%
O=C(NNS(=O)(=O)c1ccc(Cl)cc1)c1cccc(S(=O)(=O)N2CCOCC2)c1	-1%	2.6%	-6	5%
CCC1(c2ccccc2)NC(=O)N(CC(=O)NCc2ccc(F)cc2)C1=O (stereo not given)	7%	-2.0%	x	-9%
CC(C)NC(=O)Nc1cccs1	-5%	u	-6	u
Cc1ccc(OC(C)C(=O)N/N=C/c2ccccn2)cc1 (stereo not given)	2%	0.3%	2	2%
Cc1c(C(=O)NCc2ccoc2)oc2ccc3c(c12)C(=O)CC(C)(C)O3	-23%	-4.3%	-4	-27%
COc1ccccc1C(=O)N1CCN(Cc2ccc3c(c2)OCO3)CC1	1%	-1.7%	3	-11%
Cc1cccc(OCc2nnc(SCCC(=O)O)n2-c2ccccc2)c1	-6%	2.0%	x	0%
CC(=O)Nc1ccc(S(=O)(=O)NCC(=O)OCC(=O)N2CCc3ccccc32)cc1	-2%	-1.1%	-4	-5%
CCOC(=O)Cn1nc(C)c(NC(=O)COc2ccc(OC)cc2)c1C	3%&-5%	0.8%	6	2%
O=C(NNC(=S)Nc1ccc(F)cc1)c1ccccc1OC(F)F	-12%	3.1%	-2	11%
O=C(Nc1cccnc1Cl)c1ccc(=O)oc1	-1%	u	-2	-14%
COCCN1CCN(C(=O)c2cc(COc3ccc(F)cc3F)on2)CC1	-6%	-2.2%	x	-4%
Nc1c(Cl)cc(-c2[nH]c3cc(C(=O)NCCO)ccc3c(=O)c2O)cc1Cl	1%	u	x	u
COc1ccc(/C(N)=N/OC(=O)CC2CCCCC2)cc1	-45%	0.5%	x	-3%
CCn1nc(NS(=O)(=O)c2ccc(NC(C)=O)cc2)c2cc3cc(C)ccc3nc21	-19%	-1.2%	x	-22%
Cc1cccc(NC(=O)C2NC(=O)CC2c2ccccc2)c1C (stereo not given)	-6%	-0.2%	-8	10%
COc1cc(NC(=O)c2ccc3c(c2)OCCO3)ccc1NC(=O)c1ccco1	-2%	-1.4%	11	-8%
CCOC(=O)N1CCC(NS(=O)(=O)c2ccc(C)cc2)CC1	8%	-0.5%	4	9%
O=C(O)c1ccnc(C(=O)O)c1	0%	-0.3%	-11	16%
COc1ccc2cc(CCNC(=O)c3cccc([N+](=O)[O-])c3)c(=O)[nH]c2c1	4%	5.5%	17	-11%
O=C(NCC(c1ccco1)N1CCc2ccccc21)c1ccccc1Cl (stereo not given)	x	-2.2%	x	9%
CC(=O)Nc1c(Cl)cc2c(c1Cl)Cc1cc(N)ccc1-2	x	-2.0%	x	-18%
COc1ccc(CCNC(=O)CCc2ccccc2O)cc1OC	x	0.9%	x	49%
O=C(O)c1cccc(S(=O)(=O)Nc2ccccc2Cl)c1	-5%	u	4	-5%
COc1cc(/C=N/NC(=O)CN(CCc2ccccc2)S(=O)(=O)c2ccc(NC(C)=O)cc2)cc(OC)c1OC	0%	0.4%	-12	2%
CC(=O)c1cccc(-c2ccc3c(=O)[nH]c(Nc4ccccc4)cc3c2)c1	x	u	x	12µM*
CNC(=O)c1c(NC(=O)c2ccc(S(=O)(=O)N(C)c3ccccc3)cc2)sc2c1CCN(C(C)C)C2	3%	u	x	u
CCn1cc(Br)c(C(=O)NC(C)c2ccccc2)n1 (stereo not given)	-9%	6.0%	4	-11%
CCOC(=O)CCNC(=O)N1CCCC(N(C)CCc2ccccc2)C1 (stereo not given)	-5%	-1.9%	x	20%
COC(=O)c1ccc(/C=N/N2CCN(Cc3ccc(Cl)cc3)CC2)cc1	-3%	2.9%	-3	5%
Cc1ccc(S(=O)(=O)N2CCOCC2)cc1NC(=O)CSc1nnc(C2CC2)n1C1CC1	x	1.0%	x	29%
O=C(NS(=O)(=O)c1ccc(Cl)cc1)c1ccccc1	1%	4.0%	11	-4%
COc1ccc(CN2C(=O)NC3(CCCc4ccccc43)C2=O)cc1F (stereo not given)	-2%	2.1%	5	-1%
COC(=O)/C(C#N)=C/c1c(N2CCN(c3cccc(Cl)c3)CC2)nc2c(C)cccn2c1=O	-2%	u	x	-13%
COC(=O)c1ccc(NC(=O)c2cc[n+](Cc3ccccc3)cc2)cc1	-6%	-7.8%	x	5%
O=C(Nc1ccc([N+](=O)[O-])cc1)N1CCCCC1	-5%	0.8%	0	-11%
COC(C[C@H](O)[C@H](C)[C@H](O)COCc1ccccc1)OC	9%	0.0%	2	5%
O=S(=O)(c1ccc(F)cc1)N1CCc2ccccc2C1	0%	-0.8%	x	-9%

High-throughput results as filed in PubChem.

Not all compounds are listed; the hit share may differ from the screen's.
